Rango-impB inh: Rango-importin beta binding inhibition | Rango CFP/YFP FRET sensor + importin beta, 45 min | Potency, µM (doses to about 92.2 µM), for the others: top-dose inhibition of complex formation | 340,000 tested, 0.031% active; active = rising FRET ratio curve, often small or poorly fitted; inconclusive = mostly compound fluorescence or quenching in the first reads; inactive = flat curves in all reads;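 also: potency is read from the fitted curve at half-maximal effect; 0% = DMSO wells and 100% = buffer wells lacking importin beta; nearly all actives have a fitted effect of over 15% in size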
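FRET biosensor Rango (snurportin 1 IBB between N-terminal EYFP and C-terminal Cerulean), 50 nM in PBS/1 mM DTT/0.02% Tween-20/0.1% BSA, preincubated 5 min RT with compound; 0.125 microM importin beta added, 45 min RT, CFP/YFP FRET ratio read.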
miR-21 FLuc: raises the signal of a miR-21 reporter; HeLa miR-21 FLuc reporter, luciferase, 48 h; Potency, µM (series often up to 38.3 µM), for the others: top-dose reporter change, positive = more light; 340,000 tested, under 10 active; active = well fitted rising curve with a large enough effect; inconclusive = small, poorly fitted or top-dose-only effect; inactive = no such curve, though single readings can be large or run the other way;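 also: % of control where 0% means no effect; miR-21 action dims this reporter so a rising signal means less miR-21 action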
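HeLa miR-21-FLuc reporter line, endogenous miR-21; 2000 cells/well in DMEM/10% FBS; compound titration up to ~40uM final, 48 h, 37 degree Celsius; luciferase detection reagent, 15 min lysis, CCD luminescence.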
Rango release inh: inhibitors of RanGTP-induced Rango-importin beta complex dissociation; Biochemical FRET Rango-importin beta, RanGTP-induced dissociation; Potency, µM (titrated, usually from 46.1 µM), without a hit: at the highest dose activity change, negative = inhibition; 340,000 tested, 0.071% active; active means falling FRET ratio curve, often poorly fitted, with flat reads before Ran was added; inconclusive means other falling curves, or compound fluorescence or quenching; inactive means flat or rising ratio curve;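 also: potency is read from the fitted curve at half-maximal effect; % of control where 0% means no effect; nearly all actives have a fitted effect of over 45% in size; -100% = wells without RanGTP and RCC1; the record marks most hits as doubtful in a second field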
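Compounds preincubate 5 min with complex of recombinant Rango and importin beta in PBS with 1 mM DTT. Ran (0.6 uM) loaded with 2 mM GTP plus 0.2 uM RCC1 starts dissociation; FRET is recorded 45 min later.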
GLA inh pH 4.5: inhibitors of human alpha-galactosidase A at pH 4.5; P06280; purified enzyme, 4-MU-alpha-Gal fluorescence, pH 4.5; activity change, negative = inhibition, % at 105 µM; 230,000 tested, under 10 active; AID 1467; inconclusive = small, poorly fitted or top-dose-only inhibition, or a rising curve; inactive = flat fitted curve, though single readings scatter; no compound was filed as active;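 also: 0% = full activity with enzyme and -100% = basal without enzyme; dose as in the result columns while the protocol names 77 µM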
Target sequence (P06280 whole entry, looked up): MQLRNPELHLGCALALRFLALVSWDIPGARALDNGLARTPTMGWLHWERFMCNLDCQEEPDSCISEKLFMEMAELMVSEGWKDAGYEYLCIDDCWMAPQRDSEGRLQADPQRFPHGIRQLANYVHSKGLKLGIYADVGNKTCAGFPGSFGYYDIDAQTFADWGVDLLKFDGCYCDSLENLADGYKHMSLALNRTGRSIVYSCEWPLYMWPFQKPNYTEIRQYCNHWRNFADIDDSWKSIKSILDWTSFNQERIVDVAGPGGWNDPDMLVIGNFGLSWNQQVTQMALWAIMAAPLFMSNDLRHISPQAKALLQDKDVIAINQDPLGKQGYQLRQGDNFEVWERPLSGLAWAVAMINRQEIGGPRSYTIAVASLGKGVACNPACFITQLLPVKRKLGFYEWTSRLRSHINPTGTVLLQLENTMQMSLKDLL
Numbers without * were called inactive; ? = inconclusive; / = no result given; [ ] = dose if it differs, or a comment. Not all compounds are listed, so the mix of outcomes need not match the whole.

SMILES,miR-21 FLuc,GLA inh pH 4.5,Rango-impB inh,Rango release inh
Cc1nc2nc(COc3ccccc3)[nH]n2c(=O)c1Cl,2%,5,-0.6%,11%
O=C(Oc1nsnc1N1CCOCC1)c1ccccc1,0%,-3,-1.9%,-9%
O=C(Cn1ccc2ccccc2c1=O)NCC(=O)N1CCN(c2ccc(F)cc2)CC1,6%,/,-0.3%,16%
CC1(C)Cc2cccc(OCC(=O)Nc3ccccc3C(F)(F)F)c2O1,-4%,/,-3.6%,11%
COc1cc(/C=C2\SC(N)=NC2=O)ccc1OCC(=O)Nc1ccc(C)cc1,-17%,1,-3.6%,-7%
Cc1ccc(S(=O)(=O)N(CC(=O)NCC2CCCO2)Cc2cccc(C)c2)cc1 (stereo not drawn),0%,/,-3.4%,-8%
CCc1nc2ccccc2n1Cc1cc(=O)n2cc(C)ccc2n1,-18%,6,0.8%,-4%
Cc1nnc(NC(=O)c2ccc(S(=O)(=O)N3CCCCC3C)cc2)o1 (stereo not drawn),4%,/,1.9%,2%
CC(C)c1ccc(NC(=S)N(C)CCc2ccccn2)cc1,-33%,3,-0.1%,-14%
O=C(O)CCN1C(=O)C2C3CC(C2C1=O)C1C(c2ccccc2)c2sc(=O)n(-c4ccccc4)c2SC31 (stereo not drawn),-7%,-6,-1.9%,-10%
CCOC(=O)N1CCN(c2ccnc3cc(Cl)ccc23)CC1,27%,/,?,4%
COc1ccc(OCC(=O)OC2CCCN(C)C2)cc1 (stereo not drawn),-6%,-7,2.4%,-15%

More compounds:
SMILES,miR-21 FLuc,GLA inh pH 4.5,Rango-impB inh,Rango release inh
FC(F)(F)c1nnc(Nc2ccc(Cl)cc2)s1,19%,-2,-2.4%,?
CNC(=O)c1ccsc1NC(=O)C1CCN(S(=O)(=O)c2ccc(Cl)s2)CC1,/,/,2.7%,-17%
Cc1ccc(-c2ccccc2)n1-c1ccc(C(=O)O)cc1,-3%,5,2.2%,12%
Cc1ccc2cc3c(N)c4c(C)ccc(C)c4nc3nc2c1,3%,0,?,?
CCN(CC)C(=O)COc1ccc(-c2ccccc2)cc1,-58%,8,-0.2%,-1%
COCc1cc(C)n(CC(=O)Nc2ccccc2OC)c(=O)c1C#N,-2%,-4,-0.6%,4%
C=CSc1sc(Cl)c(N(CC)CC)c1[N+](=O)[O-],0%,10,1.4%,1%
C#CCOCCOCCOCCNc1nc(N2CCN(C(=O)[C@H](CCC(=O)O)n3cc(C(N)[C@H](C)CC)nn3)CC2)nc(N2CCN(C(=O)[C@H](Cc3cc4ccccc4[nH]3)n3cc(C(N)[C@H](C)CC)nn3)CC2)n1 (stereo partly drawn),6%,2,/,/
O=C(Cc1coc2ccc3ccccc3c12)N1CCN(c2ncccn2)CC1,-4%,-7,-0.3%,-4%
OC(CN1CCN(c2ccccc2)CC1)c1ccc2c(c1)CCN2 (stereo not drawn),-3%,4,-10%,-2%
O=C1CCN(Cc2ccccc2)CCN1[C@H](COc1ccccc1)c1ccccc1,7%,/,-0.7%,4%
COCCN(C(=O)CSc1nnc(-c2ccco2)n1C)c1c(N)n(CC(C)C)c(=O)[nH]c1=O,/,/,0.5%,1%

Continuation.
SMILES,miR-21 FLuc,GLA inh pH 4.5,Rango-impB inh,Rango release inh
COc1ccccc1N=C1SCC(=O)N1Cc1ccco1,-4%,-1,-2.5%,-11%
O=C(Nc1cnc2ccccc2c1)c1ccco1,-16%,-2,-3.5%,-13%
CC1(C)CC2(CC(c3ccc(F)cc3)c3ccc(O)cc3O2)NC(=S)N1 (stereo not drawn),16%,6,-0.6%,-23%
COc1ccc(S(C)(=O)=O)cc1S(C)(=O)=O,-3%,-7,-3.6%,10%
CC(OC(=O)c1ccc2c(c1)C(=O)N(Cc1ccncc1)C2=O)C(=O)Nc1cccc(Cl)c1Cl (stereo not drawn),0%,4,0.3%,-2%
CC(C)(C)Nc1nc(Cl)nc(NC(C)(C)C)n1,-9%,0,-1.7%,-12%
Cc1csc2nc(O)c(C(=O)NCC3CCCO3)c(=O)n12 (stereo not drawn),/,/,4.8%,10%
CCN(CC(=O)Nc1c(F)cccc1F)C(=O)CNC(=O)c1ccc2c(c1)OCO2,-7%,/,-2.2%,3%
Cc1ccc(-c2nnc(N3CCN(S(C)(=O)=O)CC3)c3ccccc23)cc1,12%,0,-0.1%,1%
Cc1nc2ccccn2c1-c1csc(Nc2cccc(C(=O)O)c2)n1,0%,/,0.1%,0%
COc1ccccc1NC(=O)C(=O)NNC(=O)c1ccco1,-7%,3,1.7%,9%
COc1cccc(OC)c1C(=O)NC(=S)NCc1ccco1,-1%,-3,1.5%,-2%

Later entries:
SMILES,miR-21 FLuc,GLA inh pH 4.5,Rango-impB inh,Rango release inh
CC[C@@H](C)[C@H](NC(=O)Cc1c(C)c2cc3c(C)c(C)oc3c(C)c2oc1=O)C(=O)O,-7%,/,-2.7%,-25%
O=C(OC1CCOC1=O)c1cc(Cl)ccc1[N+](=O)[O-] (stereo not drawn),0%,/,0.0%,3%
COc1ccc(C(=O)N=C2SC3CS(=O)(=O)CC3N2c2ccc(C(C)=O)cc2)cc1 (stereo not drawn),0%,/,4.7%,?
CC(C)OCCCNC(=O)c1sc(=S)n(C)c1N,-5%,-8,0.6%,11%
Cc1ccc(NC(=O)CSc2nc3nn(-c4ccccc4)c(=O)c-3c3n2CCCCC3)cc1F,/,/,-1.2%,4%
COc1ccc(NC(=O)CSc2nnc(CNc3ccc(C)cc3)n2C)cc1,-15%,5,0.4%,-10%
CC(=O)Nc1c2c(nn1-c1ccccc1C)CSC2,0%,/,-0.9%,-15%
COc1ccc(NC(=O)C2CC(=O)N(c3ccccc3C)C2)c(OC)c1 (stereo not drawn),-3%,/,2.6%,-1%
O=C(CSc1nc(-c2ccc(Cl)cc2)[nH]c(=O)n1)Nc1cccc(Cl)c1,2%,-1,2.8%,-1%
Cc1ccccc1/C=N/Nc1ccnc2cc(Cl)ccc12,11%,12,6.6%,-14%
CC1CCCC(NC(=O)COC(=O)Cc2c[nH]c3ccccc23)C1C (stereo not drawn),-2%,-18,-0.1%,2%
N#Cc1ccc(C(=O)Nc2ccn(-c3ccccc3)n2)cc1,13%,2,-5.2%,14%

Some entries already given, reduced to Rango release inh:
Molecule | Rango release inh
CC(=O)Nc1c2c(nn1-c1ccccc1C)CSC2 | -15%
COc1ccc(NC(=O)C2CC(=O)N(c3ccccc3C)C2)c(OC)c1 (stereo not drawn) | -1%
O=C(CSc1nc(-c2ccc(Cl)cc2)[nH]c(=O)n1)Nc1cccc(Cl)c1 | -1%
Cc1ccccc1/C=N/Nc1ccnc2cc(Cl)ccc12 | -14%
CC1CCCC(NC(=O)COC(=O)Cc2c[nH]c3ccccc23)C1C (stereo not drawn) | 2%

Later entries.
SMILES,miR-21 FLuc,GLA inh pH 4.5,Rango-impB inh,Rango release inh
COC(=O)C1CCN(C(=O)/C=C/c2ccccc2)CC1,-39%,6,0.7%,-8%
CC(=O)c1cc(C#N)c(NCCCN(C)C)nc1C,-7%,-1,-2.6%,7%
CC(=O)N1CCC(N(C(=O)Nc2ccc(C)c(C)c2)C2CCCC2)CC1,-22%,7,-2.0%,1%
O=C(Nc1ccccc1C(=O)O)c1ccc(CN2C(=O)c3ccccc3C2=O)cc1,4%,/,-4.1%,0%
COCc1cc(=O)[nH]c2cc(NC(=O)C(C)(C)CCl)c(C)cc12,-12%,3,0.9%,-1%
O=C(NC1CCCC1)C(c1ccc(Cl)cc1)N1CCN(C2CCCCC2)CC1 (stereo not drawn),-3%,3,-3.3%,20%
O=S(=O)(c1ccc(F)cc1)N1CCC(O)(c2ccc3c(c2)OCO3)CC1,1%,0,5.2%,1%
COc1cccc(CNc2nc3nc4c(c(=O)n3[nH]2)CCC4)c1,0%,1,0.8%,-5%
COc1ccc(NC(=O)CS(=O)(=O)c2ccc(Br)cc2)cc1,-6%,/,-0.6%,8%
Cc1cc(C)c(S(=O)(=O)NC(C)C)c(C)c1-n1cnnn1,-1%,-6,-4.3%,20%
Cc1ccc(C)c(NC(=O)NNC(=O)c2cc3ccccc3cc2O)c1,-3%,/,?,?
CCc1sc(C(=O)Nc2cccc(-n3cnnn3)c2)cc1C,/,/,-1.1%,12%

Remaining list, next part.
SMILES,miR-21 FLuc,GLA inh pH 4.5,Rango-impB inh,Rango release inh
COc1ccc(-c2cc(C(=O)NCC3CCCO3)c3ccccc3n2)cc1 (stereo not drawn),-2%,-7,2.2%,-11%
CC(=O)/C(C#N)=C1\NC(=O)C(Cc2ccc(F)cc2)S1 (stereo not drawn),13%,-1,?,-3%
CC(OC(=O)Cc1ccc(Br)cc1)C(=O)NC1CCCC1 (stereo not drawn),/,/,2.3%,-17%
CCOc1cc(/C=N/N=C2/NC(=O)C(CC(=O)O)S2)ccc1OCc1ccc(Cl)cc1Cl (stereo not drawn),-25%,-13,-2.5%,-13%
Fc1ccccc1NC(=S)N1CCCCC1,2%,5,3.3%,-2%
CC(=O)NC1(c2ccc(F)cc2)CCN(C(=O)c2c(F)cccc2F)CC1,-2%,-6,-4.3%,-10%
COc1ccc2c(CC(=O)OCC(=O)NC(=O)c3cccn3C)coc2c1,-2%,-5,-2.3%,-4%
O=C(COc1cccnc1[N+](=O)[O-])NCCc1ccccc1,-5%,2,0.3%,-7%
Cc1ccc(-n2c(C)cc(/C=c3/sc4nc5ccccc5n4c3=O)c2C)cc1,3%,-9,?,?
CCC(CC)NC(=O)COC(=O)c1cc(SC)ccc1Cl,-4%,3,1.5%,28%
CCOC(=O)C(NC(=O)c1cccc(Cl)c1)(Nc1nnc(C)s1)C(F)(F)F (stereo not drawn),-4%,-1,-4.2%,-4%
CCCCOc1ccc(S(=O)(=O)NC(=O)NCc2ccc(OCCC)cc2)cc1,0%,-2,1.2%,7%

Next part:
SMILES,miR-21 FLuc,GLA inh pH 4.5,Rango-impB inh,Rango release inh
Cc1cc(=O)oc2c(C)c(OCC(=O)N(C)C)ccc12,-3%,-1,-3.0%,-9%
Cn1cc(C(=O)Nc2ccccn2)c(=O)c2ccccc21,-21%,/,-3.0%,0%
Cc1ccc(NC(=O)Cn2ncc(Cl)c(Cl)c2=O)cc1S(=O)(=O)N1CCCCC1,/,/,-0.4%,13%
Cc1cc(C(=O)COC(=O)CN(C)S(=O)(=O)c2ccc(Cl)cc2)c(C)n1CC1CCCO1 (stereo not drawn),-2%,-7,-1.2%,7%
Cc1ccc(/C=N\NC(=O)CCc2n[nH]c(=O)[nH]c2=O)o1,-1%,0[21.1 µM],-1.6%,1%
COc1ccc(NC(C)=O)cc1S(=O)(=O)NC1CCSc2ccccc21 (stereo not drawn),-10%,/,3.7%,0%
Cc1ccc(C(=O)NCCCN2CCOCC2)cc1N1CCCC1=O,0%,3,-3.0%,9%
O=C(Nc1ccncc1NC(=O)c1cccc([N+](=O)[O-])c1)c1cccc([N+](=O)[O-])c1,-1%,-2,-2.0%,-5%
Cc1ccc2nc(-c3ccc(S(=O)(=O)N4CCOCC4)cc3)cn2c1,-23%,-4,/,/
CCCCOC(=O)C(NC(=O)c1ccccc1)=C(C)C,-1%,-1,4.4%,-19%
CCC1(c2ccc(F)cc2)NC(=O)N(CC(=O)NCC(=O)Nc2cccc(C)c2C)C1=O (stereo not drawn),/,/,4.8%,21%
CCN1CCc2c(sc3c2c(NCc2ccco2)nc2nnnn23)C1,-20%,1,?,?
O=C(Nc1nnc(CSCc2ccc(Cl)cc2)s1)c1cccc([N+](=O)[O-])c1,0%,-8,0.4%,10%
CCOc1cc(Cl)c(S(=O)(=O)NCCCn2ccnc2)cc1Cl,5%,/,0.4%,-5%

Screens as filed in PubChem BioAssay.
